# From PubChem BioAssay
# Cruzain inh noDet: inhibitors of Trypanosoma cruzi cruzain without detergent; P25779; purified cruzain, Z-FR-AMC fluorescence, no detergent; Potency, µM, without a hit: max response, negative = inhibition, actives largely listed as inhibitors; 200,000 compounds, 2.3% hits; AID 1476;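 also: plate controls were enzyme without inhibitor for no effect and buffer without enzyme for full effect; nearly all actives have a fitted effect of over 40% in size; top concentration of the series not given in the record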
# Target sequence (P25779 123-467 limits assumed): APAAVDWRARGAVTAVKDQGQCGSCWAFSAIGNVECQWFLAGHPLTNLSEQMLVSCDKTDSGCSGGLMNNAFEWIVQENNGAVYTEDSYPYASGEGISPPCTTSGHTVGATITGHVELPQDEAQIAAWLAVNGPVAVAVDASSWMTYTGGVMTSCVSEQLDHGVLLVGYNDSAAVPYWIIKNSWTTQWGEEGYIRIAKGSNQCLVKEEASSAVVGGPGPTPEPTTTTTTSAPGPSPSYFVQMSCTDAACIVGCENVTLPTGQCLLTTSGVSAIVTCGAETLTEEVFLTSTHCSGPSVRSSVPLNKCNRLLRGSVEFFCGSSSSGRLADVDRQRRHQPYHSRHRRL
#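 Detergent-free condition (0.00005% Triton X-100) in acetate buffer pH 5.5 with DTT. 1.5 nM enzyme and compound were pre-mixed 15 min, then 2 uM Z-FR-AMC substrate added; reaction progress from fluorescence change between first and third reads (60 s).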
# Cruzain inh Det: blocks cruzain activity in presence of Triton detergent. P25779. purified cruzain, Z-FR-AMC fluorescence, 0.01% Triton. Potency, µM, without a hit: max response, negative = inhibition, usual class: inhibitors. 200,000 compounds, 0.43% hits. AID 1478;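 also: plate controls were neutral wells for no effect and buffer without enzyme for full effect; nearly all actives have a fitted effect of over 40% in size; top concentration of the series not given in the record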
#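 Compounds were screened in titration against cruzain (1.5 nM) with 0.01% Triton X-100 to counter colloidal aggregation. Activity was the AMC fluorescence increase over 60 s after adding 2 uM Z-FR-AMC at pH 5.5.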
# An asterisk follows results filed as active; ? = inconclusive; & = joins results of further samples. Calls follow the shape of the dose curve; as a rule, active = well fitted curve in the direction sought with a large enough effect; inconclusive = small, poorly fitted or top-dose-only effect, or another doubt; inactive = no such curve, though single readings can be large; an effect the other way counts as inactive or inconclusive. Potency is read from the fitted curve at half-maximal effect. An excerpt; the hit share may differ from the screen's.
SMILES,Cruzain inh noDet,Cruzain inh Det
CC(C)[C@@H](CC(=O)N[C@@H]1CCNC[C@H]1C(=O)N[C@H](CC(=O)N[C@@H](CCC(=O)O)CC(=O)O)Cc1ccccc1)NC(=O)C[C@H](CO)NC(=O)[C@@H]1CCCC[C@H]1N,6.7%,1.6%
CCNCC,-2.8%,3.8%
C/C=C(/CC[C@@H](C)[C@H]1CCC2C3=CC[C@H]4[C@H](C)[C@@H](O)CC[C@]4(C)C3CC[C@@]21C)C(C)C (some centres not stated),3.1%,7.9%
CCC1=C2CC[C@H]3C(=O)NC(=O)[C@H]3[C@H]2[C@@]2(Cc3ccccc3)C(=NCC3CC3)OC(=O)N2C1=O,-4.4%,-3.2%
COc1cc(/C=C/C(=O)N2CCCCC2=O)cc(OC)c1OC,7.1%,-2.2%
COc1ccc2c(c1)O[C@@H](c1ccc3c(c1)OCO3)[C@H](OC(=O)NCCc1ccc(OC)c(OC)c1)C2=O,-2.2%,3.8%
CC1(C)CC(=O)c2c(oc3cc4c(cc23)OCO4)C1,-3.4%,-8.4%
CCCn1c(-c2ccc(F)cc2)nc2c(NC3CCN(Cc4ccccc4)C3)nc(C)nc21 (configuration not stated),-8.4%,-0.6%
Cc1cc(C(=O)NCCc2ccc(S(=O)(=O)NC(=O)NN3CCCCCC3)cc2)no1,1.8%,0.0%
CC(C)OC(=O)c1cc2c(OC[C@@H](O)CNC(C)(C)C)cccc2[nH]1,3.1%,-0.7%
O=C(c1ccccc1)C1O[C@H]1c1ccccc1 (some centres not stated),-3.5%,3.8%
COC(=O)[C@@]1(Cc2ccccc2)[C@H]2c3cc(C(=O)N(C)C)n(Cc4cc(F)c(F)c(F)c4)c3C[C@H]2CN1C(=O)c1ccccc1,?,-5.5%
Cc1cccc(O)c1,-5.0%,0.3%
CC1=C(C(=O)OCc2ccccc2)C(C2CCCCC2)NC(=O)N1CCCCCC(=O)O (configuration not stated),?,-10.5%
CC1(C(=O)NCCCNc2ncc(C(F)(F)F)cc2Cl)C=CC2(CCCCC2)N1C(=O)c1ccccc1 (configuration not stated),?,-3.3%
CC(C)=CCl,6.8%,-2.2%
CCCCCCN(C(=O)CCCCCN1C(=O)NC(c2ccc(-c3ccccc3)cc2)C(C(=O)OCc2ccccc2)=C1C)C(C(=O)NCCCC)c1ccc(OCC(=O)O)c(C(=O)O)c1 (configuration not stated),1.2%,?
OCCN1CCN(CCC=C2c3ccccc3Sc3ccc(Cl)cc32)CC1,-8.6%,-3.7%
COCCN(CCOC)c1nc(C)nc2c1nc(-c1ccccc1)n2CC1CCN(C)CC1,-1.8%,-7.0%
C/C=C/C(=O)C[C@H]1CC[C@@H](C)[C@@H](CCO)O1,-2.1%,0.3%

# Complete entries as entered above. Values in the order: Cruzain inh noDet	Cruzain inh Det
# `COc1cc(/C=C/C(=O)N2CCCCC2=O)cc(OC)c1OC` reads 7.1%	-2.2%
# `CCC1=C2CC[C@H]3C(=O)NC(=O)[C@H]3[C@H]2[C@@]2(Cc3ccccc3)C(=NCC3CC3)OC(=O)N2C1=O` reads -4.4%	-3.2%

# (cont.)
SMILES,Cruzain inh noDet,Cruzain inh Det
C=CC(=C)CCC=C(C)C,6.0%,6.0%
COCCN(CCOC)c1nc(C)nc2c1nc(-c1ccccc1)n2CCN1CCOCC1,9.5%,3.3%
NCCCCCCN,-7.2%,4.8%
CCCCC/C=C\C/C=C\C/C=C\CCCCC(=O)NCCCC(=O)O,5.9%,-3.5%
CCCCCC1=C2CNC(C)(C(=O)OC)C=C2C(C)C1=O (configuration not stated),-4.5%,-1.3%
Cc1nnc2n1-c1sc(CCC(=O)N3CCOCC3)cc1C(c1ccccc1Cl)=NC2,0.7%,-4.4%
CO[C@H]1/C=C/O[C@@]2(C)Oc3c(C)c(O)c4c(O)c(c(/C=N/N5CCN(C)CC5)c(O)c4c3C2=O)NC(=O)/C(C)=C\C=C\[C@H](C)[C@H](O)[C@@H](C)[C@@H](O)[C@@H](C)[C@H](OC(C)=O)[C@@H]1C,?,-9.2%
CCOC(=O)Oc1c(OC)cc(C(=O)O[C@H]2C[C@H]3CN4CCc5c([nH]c6cc(OC)ccc56)[C@@H]4C[C@H]3[C@@H](C(=O)OC)[C@@H]2OC)cc1OC,11.0%,-3.0%
CCCC[C@@H]1C[C@H]1C(NC(=O)c1ccco1)c1ccc(Cl)cc1 (some centres not stated),4.0%,-10.8%
ClCCl,-0.4%,-1.3%
COCCNC(=O)C1(C)C=CCN1C(C)=O (configuration not stated),-8.1%,-1.1%
CC/C=C\C/C=C\C/C=C\C/C=C\C/C=C\CCCC(=O)NCCCC(=O)O,-5.5%,2.4%
CCOC(=O)CBr,1.0%,0.6%
CCOC(=O)C1=C([Si](C)(C)C)c2ccccc2N(S(=O)(=O)C(F)(F)F)C1C(=O)OCC (configuration not stated),17.9%,-1.4%
COC(=O)[C@@]1(Cc2ccc(OC)cc2)[C@H]2c3cc(C(=O)N(C)C)n(Cc4ccc(O)c(OC)c4)c3C[C@H]2CN1C(=O)c1ccccc1,?,-7.9%
CC(C)C[C@@H](CC(=O)N[C@@H](CCCN)CC(=O)N[C@@H]1CCCC[C@H]1C(=O)N[C@H](CC(=O)N[C@@H](CCC(=O)O)CC(=O)O)Cc1ccccc1)NC(=O)[C@@H]1CCCC[C@H]1N,?,2.6%
CCCCNc1nc(C)nc2c1nc(-c1ccccc1)n2CC(C)(C)CN(C)C,-5.4%,-9.9%
CC1(C)C(=O)C(c2ccccc2)=C2CN3C(=O)N(CCc4ccccc4)C(=O)C3(Cc3ccc(F)cc3)C=C21 (configuration not stated),?,-2.9%
C=C(CO)C1Cc2c(ccc3c(=O)c4c(oc23)COc2cc(OC)c(OC)cc2-4)O1 (configuration not stated),?,0.7%
COC(=O)[C@@]1(Cc2ccc(OC)cc2)[C@H]2c3cc(C(=O)N(C)C)n(Cc4ccc(OC)c(OC)c4)c3C[C@H]2CN1C(=O)c1ccccc1,?,-1.7%
CCCCCCc1ccc(-c2ccc(C#N)cc2)cc1,-1.1%,6.6%
COC(=O)[C@@H]1C[C@H]1[C@@H](N)c1ccccc1,-2.8%,-2.1%
N=C(N)c1ccc(N2CCN(C3CCN(CC(=O)O)CC3)CC2)cc1,9.6%,-4.9%
COC(=O)C1(Cc2ccccc2)C=C2C(=C(C)C(=O)C2C)CN1 (configuration not stated),-6.6%,6.6%
CN1CCN(CCCN2c3ccccc3Sc3ccccc32)CC1,-0.1%,1.6%
NC[C@@H]1O[C@H](O[C@H]2[C@H](O)[C@H](O[C@@H]3O[C@H](CO)[C@@H](O)[C@H](N)[C@@H]3O)[C@@H](N)C[C@H]2N)[C@@H](O)[C@H](O)[C@@H]1O,5.3%,-2.9%
COc1ccc(CNC(=O)[C@H]2C[C@@H]2[C@H](NP(=O)(c2ccccc2)c2ccccc2)c2ccccc2)cc1OC,?,-16.3%
CCCCNC(=O)C(c1ccc(OCC(=O)OC)c(C(=O)OC)c1)N(CCC1=CCCCC1)C(=O)CCCCCN1C(=O)NC(c2ccc(-c3ccccc3)cc2)C(C(=O)OCc2ccccc2)=C1C (configuration not stated),-2.8%,0.3%
COC(=O)N1[C@H](C)C=C[C@]1(Cc1ccccc1)C(=O)NCc1ccccn1,1.9%,4.5%
CC[C@@H]1CN2CC[C@@H]1C[C@H]2[C@H](O)c1ccnc2ccc(OC)cc12,1.5%,3.0%
Nc1c(Cl)c(Cl)nc(C(=O)O)c1Cl,-6.4%,4.5%
COC(=O)N1CC=CC1(C)C(=O)NCc1ccc(C)o1 (configuration not stated),12.5%,2.0%
COc1ccc2[nH]c(-c3ccc(F)cc3F)cc(=O)c2c1,-4.3%,1.9%
COC(=O)[C@@]1(Cc2ccc(OC)cc2)[C@H]2c3cc(C(=O)N(C)C)n(CCc4c[nH]c5ccc(O)cc45)c3C[C@H]2CN1C(=O)c1ccccc1,?,-2.7%
NC(=O)NCCC[C@H](N)C(=O)O,-4.7%,-0.9%
CCCCC/C=C\C/C=C\C/C=C\C/C=C\CCCC(N)=O,-4.5%&-16.0%,-2.4%&0.2%
C=CCOC(=O)COCCC(C)C,-3.5%,5.6%
Nc1cc(Cl)c([N+](=O)[O-])cc1O,-3.1%,-3.1%
COc1ccc(/C=C/C(=O)c2cccs2)cc1OC,?,2.9%
CC(C)[C@@H](CC(=O)N[C@@H]1CCCC[C@H]1C(=O)N[C@H](CC(=O)N[C@@H](CCC(=O)O)CC(=O)O)Cc1c[nH]c2ccccc12)NC(=O)C[C@H](CO)NC(=O)[C@@H]1CNCC[C@H]1N,-5.8%,-0.4%
CCC(C)CCCCC(=O)N[C@@H](CCN)C(=O)N[C@H](C(=O)N[C@@H](CCN)C(=O)N[C@H]1CCNC(=O)C([C@@H](C)O)NC(=O)[C@@H](CCN)NC(=O)[C@H](CCN)NC(=O)[C@H](CC(C)C)NC(=O)[C@@H](CC(C)C)NC(=O)[C@H](CCN)NC1=O)[C@@H](C)O (some centres not stated),-2.6%,-9.5%
Oc1cccc(Cl)c1,-4.9%,0.5%
COC(=O)[C@@]1(Cc2ccc(OC)cc2)[C@H]2c3cc(C(=O)N(C)C)n(Cc4ccccn4)c3C[C@H]2CN1C(=O)c1ccccc1,?,0.8%
C[C@@H](C(=O)Nc1ccc2ccccc2c1)[C@@H]1C[C@@]1(C)[C@@H](NS(=O)(=O)c1ccccc1)c1ccccc1,?,-0.8%
C=C(C)[C@H]1CC[C@]2(C(=O)O)CC[C@]3(C)[C@@H](CC[C@H]4[C@@]5(C)CC[C@@H](O)C(C)(C)[C@@H]5CC[C@@]43C)[C@H]12,-10.5%,-5.1%
Nc1ccccc1N,-2.3%,0.5%
O=P(OCCCl)(OCCCl)OCCCl,37.8%,-2.8%
C=NC(C(=O)NC1C(=O)N2C1SC(C)(C)C2C(=O)O)c1ccccc1 (configuration not stated),?,-4.5%
CCc1ccccc1O,5.1%,8.0%
COC(=O)CNC(=O)C1(CC(C)C)C=CCN1C(C)=O (configuration not stated),-3.8%,-0.9%
CCCC[C@H]1C[C@@H]1[C@@H]1N(P(=O)(c2ccccc2)c2ccccc2)C[C@@](O)(c2ccccc2)CC12CC2,-13.1%,1.8%
CCC1=C2CC[C@H]3C(=O)N(CC)C(=O)[C@H]3[C@H]2[C@@]2(Cc3ccccc3)C(=O)N(CCOC)C(=O)N2C1=O,0.3%,3.1%

# In the list so far, 12 have a COOH group:
SMILES,Cruzain inh noDet,Cruzain inh Det
CC(C)[C@@H](CC(=O)N[C@@H]1CCNC[C@H]1C(=O)N[C@H](CC(=O)N[C@@H](CCC(=O)O)CC(=O)O)Cc1ccccc1)NC(=O)C[C@H](CO)NC(=O)[C@@H]1CCCC[C@H]1N,6.7%,1.6%
CC1=C(C(=O)OCc2ccccc2)C(C2CCCCC2)NC(=O)N1CCCCCC(=O)O (configuration not stated),?,-10.5%
CCCCCCN(C(=O)CCCCCN1C(=O)NC(c2ccc(-c3ccccc3)cc2)C(C(=O)OCc2ccccc2)=C1C)C(C(=O)NCCCC)c1ccc(OCC(=O)O)c(C(=O)O)c1 (configuration not stated),1.2%,?
CCCCC/C=C\C/C=C\C/C=C\CCCCC(=O)NCCCC(=O)O,5.9%,-3.5%
CC/C=C\C/C=C\C/C=C\C/C=C\C/C=C\CCCC(=O)NCCCC(=O)O,-5.5%,2.4%
CC(C)C[C@@H](CC(=O)N[C@@H](CCCN)CC(=O)N[C@@H]1CCCC[C@H]1C(=O)N[C@H](CC(=O)N[C@@H](CCC(=O)O)CC(=O)O)Cc1ccccc1)NC(=O)[C@@H]1CCCC[C@H]1N,?,2.6%
N=C(N)c1ccc(N2CCN(C3CCN(CC(=O)O)CC3)CC2)cc1,9.6%,-4.9%
Nc1c(Cl)c(Cl)nc(C(=O)O)c1Cl,-6.4%,4.5%
NC(=O)NCCC[C@H](N)C(=O)O,-4.7%,-0.9%
CC(C)[C@@H](CC(=O)N[C@@H]1CCCC[C@H]1C(=O)N[C@H](CC(=O)N[C@@H](CCC(=O)O)CC(=O)O)Cc1c[nH]c2ccccc12)NC(=O)C[C@H](CO)NC(=O)[C@@H]1CNCC[C@H]1N,-5.8%,-0.4%
C=C(C)[C@H]1CC[C@]2(C(=O)O)CC[C@]3(C)[C@@H](CC[C@H]4[C@@]5(C)CC[C@@H](O)C(C)(C)[C@@H]5CC[C@@]43C)[C@H]12,-10.5%,-5.1%
C=NC(C(=O)NC1C(=O)N2C1SC(C)(C)C2C(=O)O)c1ccccc1 (configuration not stated),?,-4.5%
